UUG fidelity – modulators of yeast start codon fidelity, primary screen, whole organism, S. cerevisiae, single point, plate reader; S. cerevisiae UUG-firefly luciferase reporter, luminescence/redox ratio; activity score, % at 18.7 µM; 350,000 tested, 0.13% active; AID 602363, 2012;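 active = replicate mean at a twofold rise or more, about +100% in these data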;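 also: firefly luciferase made from a UUG start codon reports start codon fidelity; reporter light over untreated wells divided by growth signal over untreated wells; some hits fall short of that in this replicate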
MT1-MMP act inh – blockers of MT1-MMP proenzyme processing, primary screen, HT1080 RFP-PRO-GFP cells, GFP/RFP fluorescence | GFP/RFP ratio change, % at 20 µM | 360,000 tested, 0.061% active | GFP/RFP ratio fluorescence, overnight; percent of plate control window, DMSO zero | Matrix metalloproteinase-14 (Homo sapiens), P50281;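 active = GFP/RFP ratio change of at least 30% with cell ATP level not reduced by more than half and red fluorescence within 50% of control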; also: strong numbers were not always called active
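Test system: HT1080 cells expressing an RFP-PRO-GFP fluorescent reporter construct / Compound dosing: single-point 20 µM compound, 1% DMSO / Schedule: cells overnight before dosing, compound overnight, 37 °C, 5% CO2 / Evaluation: GFP/RFP fluorescence ratio / Control set: DMSO and RFP-L50D-GFP cell wells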
Rce1 inhib – yeast Rce1p protease inhibitors, primary screen, biochemical, fluorescence, cell-free homogeneous; 290,000 tested, 0.27% active; yeast membranes, quenched prenylated peptide cleavage fluorescence; calls only; CAAX prenyl protease 2 (Saccharomyces cerevisiae (strain ATCC 204508 / S288c)), Q03530;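 active = fall in fluorescence gain of 50% or more versus controls, with final raw signal at or below 3038400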;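 also: plate controls were neutral control wells for no effect and wells lacking membranes for full effect; tested at 10 µM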
HIV Env fusion – inhibitors of HIV-1 Env-driven cell-cell fusion, primary screen, HeLa-JRFL effector, CEM21 target cells, luciferase | inhibition, % at 12.3 µM | 360,000 tested, 1.1% active | AID 651610, 2012;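 active = mean replicate inhibition score of at least 50 and every replicate individually at or above 50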;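 also: 0% = plate neutral controls and 100% = maraviroc near 300 nM; one replicate is shown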
CSC inhib – cancer stem cell viability inhibitors, primary screen, luminescence; cancer stem cell-like cells viability; inhibition, % at 7.5 µM; 300,000 tested, 1.1% active; AID 2717, 2010;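 active = mean at 75% or more and at least half the replicates too; tested in HMLE shEcad cells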;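 also: 0% = median of negative and 100% = median of positive control wells; the first replicate is given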
PABP FP inh – PABP poly(A) RNA binding inhibitors, primary screen, biochemical, fluorescence polarization, uHTS; inhibition, % at 35 µM; AID 2014, 2009; Polyadenylate-binding protein 1 (Homo sapiens), P11940; 290,000 tested, 1% active;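 active = 50% or more with normal probe brightness, or confirmed in later tests; about a fifth of its hits are not listed in these tables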;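 also: calls also rest on retests at 20 µM and on dose response follow-up; controls were probe without protein and protein plus probe with vehicle; some compounds called inactive have numbers as strong as hits; many hits fall short of the cut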
Target sequence (P11940 whole entry, looked up): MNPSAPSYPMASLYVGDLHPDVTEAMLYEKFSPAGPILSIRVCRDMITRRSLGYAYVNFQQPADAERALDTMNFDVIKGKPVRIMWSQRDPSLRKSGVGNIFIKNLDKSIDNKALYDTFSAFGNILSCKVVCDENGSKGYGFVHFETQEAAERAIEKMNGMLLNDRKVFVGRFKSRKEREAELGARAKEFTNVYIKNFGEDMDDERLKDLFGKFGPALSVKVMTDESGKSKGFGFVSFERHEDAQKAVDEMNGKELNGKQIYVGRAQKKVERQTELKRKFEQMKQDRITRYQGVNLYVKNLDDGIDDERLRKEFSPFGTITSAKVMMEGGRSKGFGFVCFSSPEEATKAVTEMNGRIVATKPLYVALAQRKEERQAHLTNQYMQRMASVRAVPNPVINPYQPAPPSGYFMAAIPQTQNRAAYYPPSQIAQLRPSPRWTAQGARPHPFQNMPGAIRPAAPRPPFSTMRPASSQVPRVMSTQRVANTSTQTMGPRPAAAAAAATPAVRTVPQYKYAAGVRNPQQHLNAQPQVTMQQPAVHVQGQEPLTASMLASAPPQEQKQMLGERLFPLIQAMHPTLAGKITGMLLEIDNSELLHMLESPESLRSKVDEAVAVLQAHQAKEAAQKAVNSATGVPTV
eIF4H inh – human eIF4H binding inhibitors, primary screen, translation initiation inhibitor project, biochemical, uHTS, fluorescence polarization; Eukaryotic translation initiation factor 4H (Homo sapiens), Q15056; eIF4H fluorescence polarization binding assay; inhibition, % at 35 µM; 290,000 tested, 0.94% active;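 active = 50% or more with normal probe brightness, or confirmed in later tests; about a fifth of its hits are not listed in these tables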;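 also: calls also rest on retests at 20 µM and on dose response follow-up; 0% = protein and probe with vehicle and 100% = probe without protein; strong numbers were not always called active; many hits fall short of the cut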
eIF4H inh retest – further read-out of eIF4H inh, marked with its call; inhibition, %; compound at 20 µM; confirmation average;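 mean of two retest wells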
PABP FP inh retest – also measured in PABP FP inh; calls as there; inhibition, %; compound at 20 µM; confirmation repeats;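 mean of two retest wells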
MT1-MMP act inh RFP – further read-out of MT1-MMP act inh, marked with its call; RFP signal change, %; measured here: RFP expression control read;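 0 = vehicle wells; hits needed this value within 50% of zero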
Numbers without * were called inactive; i = inactive; . = not tested or not shown.

SMILES	UUG fidelity	MT1-MMP act inh	MT1-MMP act inh RFP	Rce1 inhib	HIV Env fusion	CSC inhib	PABP FP inh	eIF4H inh	others
Cc1csc(NC(=S)NC(=O)c2ccccc2)n1	-19.2	1.3	1.3	i	-44.2	-2.3	3.0	-15.6
CCCCCOCC(O)CCC(=O)NN (stereo not given)	-7.6	-2.1	-2.4	i	.	18.6	-6.4	-9.4
CCOC(=O)C1CCN(C(=O)c2cccnc2Oc2ccccc2)CC1	-0.2	-1.2	3.3	i	-0.2	-0.2	-5.3	5.1
Cc1ccc(C(=O)NC2CCN(S(=O)(=O)c3ccc(F)cc3)CC2)cc1	-16.4	5.5	1.8	i	-5.6	-0.1	-4.5	-2.3
Cc1ccc(/C=N/N(C)S(=O)(=O)c2ccc(C)cc2)cc1	0.3	-0.2	-9.8	i	2.7	22.6	9.2	2.2
Cc1ccc(N2C(=O)N(C(C)C)C(C)(C)CC2(C)O)cc1 (stereo not given)	16.8	-0.1	2.0	i	2.7	.	11.6	-0.9
Cc1ccc(OCc2nnc(SCc3cc(=O)[nH]c4ccccc34)o2)cc1	-14.7	2.3	-0.7	i	17.6	-25.1	-1.3	-8.9
CCc1nnc(NC(=O)CSc2nnc(-c3cc4ccccc4cc3O)n2CC)s1	-1.8	10.1	-5.3	i	2.2	.	1.5	-3.0
Cc1nc(NC(=O)/C=C/c2ccco2)sc1C	.	-8.4	-6.3	i	-28.1	25.8	-6.5	84.2	eIF4H inh retest=-3.0;PABP FP inh retest=3.8
CCOC(=O)c1cc(-c2ccccc2)n[nH]1	.	0.2	0.7	i	-12.5	-7.8	0.8	-8.8
Cc1cc(C)cc(N2C(=O)C=CC2=O)c1	-17.9	0.3	0.5	.	7.7	.	.	.
Brc1ccccc1/C=N/Nc1nc2ccccc2o1	-11.9	-2.3	2.1	i	-43.5	6.4	-9.6	-8.9
C[C@@H]1CN(C(=O)c2nc3ccc(Cl)cn3c2CNCC[C@@H]2C[C@@H]3C=C[C@H]2C3)C[C@H](C)O1	-5.1	-7.0	-3.9	i	-20.9	-3.3	6.2	9.6
CCOC(=O)Cn1nc(/C=C/c2ccc(OC)cc2)ccc1=O	-10.0	-0.9	2.8	.	.	-12.0	.	.
Cc1ccc(C)c(NC(=O)CSc2nnc(CNC(=O)c3cccs3)o2)c1	.	3.4	5.1	i	1.9	.	-1.2	3.4
CCOC(=O)C1CCN(C(=O)C2(NC(=O)NC3CCCCC3)CCCCC2)CC1	-5.3	1.0	2.1	i	0.4	-3.5	-0.6	-8.5
COc1cc(C(=O)N(Cc2cc3cc(C)ccc3[nH]c2=O)CC2CCCO2)cc(OC)c1OC (stereo not given)	-16.1	2.3	-2.1	i	-50.7	-16.8	9.0	-1.6
O=C(CCc1c[nH]c2ccccc12)NC1CC1	-11.9	1.6	2.0	i	-29.0	-1.4	-1.0	-1.3
COc1ccc(C(=O)NNC(=O)C(Cc2ccc(O)cc2)NC(=O)c2ccccc2NC(=O)c2ccc(OC)cc2)cc1 (stereo not given)	1.6	-2.5	-4.0	i	-11.1	4.0	1.5	4.9
COCCN(Cc1cc2ccccc2[nH]c1=O)C(=O)c1ccccc1OC	-16.2	-2.1	3.3	i	-27.6	-21.8	-7.2	10.0
CCOC(=O)c1cc2c(s1)-c1ccccc1CC2	-4.0	-1.7	-1.6	i	.	5.5	5.2	4.7
O=S(=O)(c1ccc(-c2nnc(SCc3ccccc3)o2)cc1)N1CCCC1	1.7	-2.5	-4.6	i	-84.6	-4.1	8.7	-10.2
Cc1ccc(C)c(CNS(=O)(=O)c2c(C)[nH]c(C)c2C(=O)N2CCCCC2)c1	-5.7	-2.0	-1.6	i	10.6	-5.4	5.8	6.2
C/C=C(/C)C(=O)O[C@@H]1c2c(ccc3ccc(=O)oc23)O[C@@H]1C(C)(C)OC(=O)/C(C)=C\C	-7.1	2.9	-8.8	i	-2.4	42.3	-3.0	-12.0
CC(C)OCCCNC(=O)c1cc(S(=O)(=O)N2CCCCC2)c[nH]1	-22.4	1.9	4.5	i	14.1	-8.3	-4.7	-11.8

Three compounds out of the list, ordered by heavy-atom count, smallest number first:
SMILES	UUG fidelity	MT1-MMP act inh	MT1-MMP act inh RFP	Rce1 inhib	HIV Env fusion	CSC inhib	PABP FP inh	eIF4H inh	others
CCCCCOCC(O)CCC(=O)NN (stereo not given)	-7.6	-2.1	-2.4	i	.	18.6	-6.4	-9.4
Brc1ccccc1/C=N/Nc1nc2ccccc2o1	-11.9	-2.3	2.1	i	-43.5	6.4	-9.6	-8.9
O=S(=O)(c1ccc(-c2nnc(SCc3ccccc3)o2)cc1)N1CCCC1	1.7	-2.5	-4.6	i	-84.6	-4.1	8.7	-10.2

The main list resumes; the 6 compounds before the break are reprinted first.
SMILES	UUG fidelity	MT1-MMP act inh	MT1-MMP act inh RFP	Rce1 inhib	HIV Env fusion	CSC inhib	PABP FP inh	eIF4H inh	others
COCCN(Cc1cc2ccccc2[nH]c1=O)C(=O)c1ccccc1OC	-16.2	-2.1	3.3	i	-27.6	-21.8	-7.2	10.0
CCOC(=O)c1cc2c(s1)-c1ccccc1CC2	-4.0	-1.7	-1.6	i	.	5.5	5.2	4.7
O=S(=O)(c1ccc(-c2nnc(SCc3ccccc3)o2)cc1)N1CCCC1	1.7	-2.5	-4.6	i	-84.6	-4.1	8.7	-10.2
Cc1ccc(C)c(CNS(=O)(=O)c2c(C)[nH]c(C)c2C(=O)N2CCCCC2)c1	-5.7	-2.0	-1.6	i	10.6	-5.4	5.8	6.2
C/C=C(/C)C(=O)O[C@@H]1c2c(ccc3ccc(=O)oc23)O[C@@H]1C(C)(C)OC(=O)/C(C)=C\C	-7.1	2.9	-8.8	i	-2.4	42.3	-3.0	-12.0
CC(C)OCCCNC(=O)c1cc(S(=O)(=O)N2CCCCC2)c[nH]1	-22.4	1.9	4.5	i	14.1	-8.3	-4.7	-11.8
CCn1c(CNC(=O)COC)nc2ccccc21	-17.3	-1.2	2.6	i	-164.2	0.7	10.8	-2.1
COc1cccc(NC(=O)CN2CCN(C(=O)c3ccco3)CC2)c1	-14.1	-0.4	3.9	i	-16.2	7.9	-0.1	0.8
CCN1C[C@@H]2[C@@H]3C(=O)N(C)C(=O)[C@@H]3[C@](Cc3ccccc3)(C1=O)N2C(=O)c1ccc(F)cc1	-9.0	0.1	5.8	.	34.6	.	.	.
O=C1OC/C(=C(/O)c2ccc(Cl)cc2)C1=O	-22.6	-0.4	0.5	i	5.6	-7.4	0.3	-2.0
CC(C)=CCC/C(C)=C/C(N)=O	-14.5	0.8	5.2	i	2.7	-3.4	11.1	4.9
COc1ccc(OC)c(C(C)NC(=O)Nc2ccccc2)c1 (stereo not given)	9.0	-8.3	-2.4	i	-0.8	-9.9	-15.7	-12.8
CCCOc1ccc(C(=O)CCC(=O)OCC(=O)Nc2ccc(OCC)cc2)cc1	.	.	.	i	1.4	-1.7	-4.0	0.6
Cc1cc(C)c(C(N)=O)c(Nc2ccc3c(c2)OCCO3)n1	-16.6	2.4	2.4	i	.	-6.4	2.6	5.4
Cc1ccc(OCc2nnc(SCC(=O)c3ccccc3)n2-c2ccccc2)cc1	-12.6	21.8	-7.0	i	-47.4	0.5	0.1	-7.3
O=C(CN1C(=O)NC2(CCCCCC2)C1=O)NCc1cccs1	-8.2	-3.1	-0.2	i	-0.4	-4.9	3.5	-0.6
O=C(c1ccc([N+](=O)[O-])cc1)N1CCC(n2nnc3cc(F)ccc32)CC1	.	-0.4	-2.2	i	1.9	-9.8	-2.4	-8.1
NC(=O)[C@@H]1CCCN1C(=O)[C@@H](Cc1cnc[nH]1)NC(=O)[C@@H]1CCC(=O)N1	-19.8	-0.4	2.5	.	.	-13.7	.	.
CNc1ncnc(Sc2ccc(Cl)cc2)c1[N+](=O)[O-]	-12.0	-11.1	-11.3	i	19.7	17.8	3.3	-3.9
CC(=O)OCC(OC(C)=O)C(OC(C)=O)C(OC(C)=O)C(=O)Nc1ccccc1 (stereo not given)	.	2.4	5.2	i	-5.8	-9.5	2.2	-5.2
CC1(C)CC(=O)/C(=C(\O)c2ccccc2)C(=NCCO)C1	-15.1	2.9	5.9	i	-50.1	-12.5	-6.5	-13.1
Cc1cccc(N(Cc2ccccc2)C(=O)c2ccc(S(C)(=O)=O)cc2)c1	-2.8	-5.2	-0.9	i	-110.6	-2.8	-1.3	-4.4
CCCn1nc(C(=O)NNC(=O)c2cc(S(=O)(=O)NC)ccc2Br)c2ccccc2c1=O	.	-3.6	1.6	i	-19.1	15.6	.	.
CCCn1c(CCc2ccccc2)nnc1SCC(=O)N1CCOCC1	-12.2	0.2	-2.7	i	.	-23.4	-4.6	-3.2
O=C(NCc1ccc(F)cc1)C1CCCN1C(=O)Nc1ccc(F)cc1 (stereo not given)	3.0	-4.3	1.9	i	-4.2	-6.3	-2.8	-18.9
O=C(c1ccccc1F)N1CCN(c2ccccn2)CC1	-23.8	0.5	5.3	i	2.7	-7.2	6.8	-2.8
Cc1ccc(S(=O)(=O)c2c(C)cc(C)nc2Cl)c(C)c1	0.3	6.0	3.4	i	-44.9	-18.6	-0.2	1.0
CCOc1ccc2oc(C(=O)N3CCN(Cc4ccccc4)CC3)c(C)c2c1	-32.2	-3.1	-4.7	i	0.5	.	-9.1	-13.1
CN(Cc1ccc(F)cc1)C(=O)c1sccc1-c1ccccc1	11.6	-3.1	-0.4	i	8.3	.	50.1*	14.6	eIF4H inh retest=46.8;PABP FP inh retest=63.0*
C=COCCNC(=S)N1CCOCCOCCN(C(=S)NCCOC=C)CCOCCOCC1	.	.	.	i	9.1	-6.9	8.7	-11.8
Cc1ccc(NC(=O)CN2C(=O)NC(C)(C3CC3)C2=O)c(C)c1 (stereo not given)	.	-2.2	1.2	.	-2.7	-10.6	.	.

(list continues)
SMILES	UUG fidelity	MT1-MMP act inh	MT1-MMP act inh RFP	Rce1 inhib	HIV Env fusion	CSC inhib	PABP FP inh	eIF4H inh	others
O=C(Cc1nc2ccccc2[nH]1)c1cccc([N+](=O)[O-])c1	.	0.7	-31.3	i	73.4*	90.8*	-7.4	8.3
Cc1cc(C)n2c(SCC#N)nnc2n1	8.3	2.7	7.0	i	-2.8	.	0.7	3.7
Cc1ccc(NC(=O)c2nccnc2C(=O)O)cc1C	-0.7	0.8	3.8	i	11.0	-2.7	21.7	-7.1
Nc1ccccc1C(=O)NC1CCCNC1=O (stereo not given)	-6.9	-0.1	2.5	i	5.5	-9.1	.	.
Cc1cc2oc(=O)cc(CN3CCN(Cc4ccccc4)CC3)c2cc1O	4.5	-1.7	-10.3	i	-5.2	6.9	1.0	0.2
Cn1c(-c2cccc([N+](=O)[O-])c2)cnc1NCc1ccc(C#N)cc1	.	3.7	8.6	i	10.0	-4.0	4.8	-2.8
CC(C)N(C(=O)Cn1cc(SCC(N)=O)c2ccccc21)C(C)C	.	-3.0	4.8	i	6.3	-11.8	8.5	-5.1

Compound activity from PubChem BioAssay.
